Screening results: PubChem, National Center for Advancing Translational Sciences (NCATS)
HTT promoter inh: Primary qHTS for Identification of Small Molecule Inhibitors of Huntingtin Promoter Activity; AID 1508623, 2021; Potency, µM (top dose mostly 57.5 µM), without a hit: at the top dose activity change, negative = inhibition, most hits filed as inhibitors; HEK293 HTT promoter firefly luciferase reporter (activity 0% = vehicle and -100% = no light), 24 h; actives 0.93% (n = 48,000); active = well fitted inhibition curve with a large enough effect; inconclusive = small, poorly fitted or top-dose-only effect; inactive = no such curve, though single readings can be large or run the other way; note: nearly all actives have a fitted effect of over 50% in size
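HEK293 cells carrying firefly luciferase reporters were seeded at 2,500 per well in Opti-MEM and cultured for 24 h. They were then treated with compounds at up to 57.5 uM final for 24 h at 37 degrees C before Dual-Glo luminescence readout.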
PMP22 txn: Cell-based coincidence reporter assay to measure PMP22 gene transcription in S16 Pmp22-F2sN cells - Primary screen; S16 Pmp22-F2sN Schwann cells (luciferase reporters placed in the Pmp22 gene), FLuc/NLuc coincidence luminescence, 24 h; Potency, µM (highest dose often 57.5 µM), without a hit: top-dose activity change, negative = inhibition, hits mostly inhibitors; actives 2% (n = 43,000); AID 1508649, 2021; active = clear falling dose curves in both reporters; inconclusive = both reporters move, but less clearly or upward; inactive = either reporter flat; the % is the NLuc reporter signal; note: % is set by controls: 0 for no effect and ±100 for the full control effect; some results filed as inactive show a strong effect at the top dose
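Rat S16 Pmp22-F2sN cells, 500-1,000/well in phenol red-free DMEM + 10% FBS, compound-treated 24 h (37C, 5% CO2). Luminescence: FLuc read, Stop&Glo added, NLuc read.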
An asterisk follows results filed as active; [ ] = dose if it differs, or a comment. Potency is the fitted concentration of half-maximal effect. Hits appear at their usual frequency; any-hit rate near 2.4%.

O=C(O)[C@H](O)[C@@H](O)[C@H](O[C@@H]1O[C@H](CO)[C@H](O)[C@H](O)[C@H]1O)[C@H](O)CO was read as HTT promoter inh 3.0%.
Cc1ccc(C)c(S(=O)(=O)c2cn(Cc3ccccc3)c3cc(F)c(F)cc3c2=O)c1 was read as HTT promoter inh -28.1% and PMP22 txn -25.0%.
`O=C(CN1C(=O)C2CCCCN2c2ccc(C(=O)N3CCCC3)cc21)NCc1ccccc1F` (stereo not drawn) gave HTT promoter inh -5.4% and PMP22 txn -31.7%.
For Cc1ccc(-c2nc3ccc(Cl)cn3c2Nc2ccc3c(c2)OCCO3)o1 the results were HTT promoter inh 32.7%[activator] and PMP22 txn 1.9%.
`CCc1ccccc1NC(=O)CCn1nc(C)c2c(C)n(-c3ccccc3)nc2c1=O` gave HTT promoter inh -15.5% and PMP22 txn 11.3%.
Screening COc1ccccc1C(=O)Nc1c(C(=O)N(C)Cc2ccccc2)sc2nc(C)c(Cl)c(C)c12 returned HTT promoter inh -29.6% and PMP22 txn inconclusive.
O=C(Cn1cc(S(=O)(=O)c2ccc(Cl)cc2)c(=O)c2ccccc21)Nc1ccc2c(c1)OCO2 was read as HTT promoter inh -30.0% and PMP22 txn inconclusive.
For CCC(=O)N1CCc2cc(S(=O)(=O)NCCC(=O)Nc3cccc(C)c3C)ccc21 the results were HTT promoter inh -15.4% and PMP22 txn -4.1%.
Screening O=C(Nc1ccc(F)cc1F)c1cc(-c2ccc(Cl)cc2)on1 returned HTT promoter inh 2.8% and PMP22 txn 23.2%.
Cc1cccc(NC(=O)CSc2nnc3[nH]c(=O)cc(-c4ccccc4)n23)c1C was read as HTT promoter inh 56.9%[activator] and PMP22 txn -2.6%.
For COc1cc(OC)c(NC(=O)C(Cc2ccccc2)NS(=O)(=O)c2cccc3nsnc23)cc1Cl (stereo not drawn) the results were HTT promoter inh -39.9% and PMP22 txn -3.2%.
CC(=O)c1ccc(NC(=O)COc2ccccc2-c2nc(C(C)C)no2)cc1 was read as HTT promoter inh 0.6% and PMP22 txn 12.6µM*.
Screening Cc1cccn2c(=O)cc(CSc3nnc(NC(=O)c4ccc(F)cc4)s3)nc12 returned HTT promoter inh -2.4% and PMP22 txn 8.7%.
For CC(=O)N1CCc2cc(S(=O)(=O)NC(CC(C)C)C(=O)NCc3ccccc3Cl)ccc21 (stereo not drawn) the results were HTT promoter inh -13.8% and PMP22 txn -5.0%.
For Cc1nc(N2CCOCC2)c2c(C(=O)N3CCN(c4cc(Cl)ccc4C)CC3)c(C)oc2n1 the results were HTT promoter inh 4.2% and PMP22 txn -24.3%.
For CSc1cccc(-c2nnc(NC(=O)c3ccc4c(c3)OCCO4)o2)c1 the results were HTT promoter inh -18.6% and PMP22 txn inconclusive.
COc1ccc(-c2cnc(NCc3ccc(C)cc3)n2C)cc1 was read as HTT promoter inh -11.5% and PMP22 txn inconclusive.
CCn1cc(CCC(=O)NCc2ccc(F)cc2)c2ccccc21 was read as HTT promoter inh -10.9% and PMP22 txn -2.0%.
Screening COc1cccc(NC(=O)Cn2c(=O)n(CC(=O)NCc3ccc(C)cc3)c(=O)c3sccc32)c1 returned HTT promoter inh -20.1% and PMP22 txn inconclusive.
Screening Cc1ccc(/C=C/C(=O)Nc2ccc(S(N)(=O)=O)cc2)o1 returned HTT promoter inh 7.3% and PMP22 txn 7.5%.
CCCCNC(=O)c1nn(-c2ccc(CC)cc2)nc1CO was read as HTT promoter inh -4.1% and PMP22 txn -28.9%.
Nc1cccc(-c2cc3c(Oc4cccc(O)c4)ncnc3[nH]2)c1 was read as HTT promoter inh inconclusive.
For Cc1ccc(NC(=O)C(=O)NCC(c2ccc3c(c2)OCO3)N2CCOCC2)cc1C (stereo not drawn) the results were HTT promoter inh -12.6% and PMP22 txn 10.9%.
`COc1ccc(C)cc1NC(=O)CSc1ccc(-c2ccccn2)nn1` gave HTT promoter inh inconclusive and PMP22 txn inconclusive.
For CCCCSc1nnc2c(n1)OC(C)N(C(C)=O)c1ccccc1-2 (stereo not drawn) the results were HTT promoter inh -3.8%[11.5 µM] and PMP22 txn -8.2%.
CCCCCn1c(=N)c(S(=O)(=O)c2ccccc2)cc2c(=O)n3cccc(C)c3nc21 was read as HTT promoter inh 1.1% and PMP22 txn 0.9%.
For Cc1ccc(NC(=O)c2sc(-n3nc(C)c(Cc4ccc(Cl)cc4)c3C)nc2C)cc1 the results were HTT promoter inh 5.6% and PMP22 txn -7.1%.
Screening CC(=O)c1cccc(NC(=O)Cc2ccc(NC(=O)N3CCCCc4ccccc43)cc2)c1 returned HTT promoter inh inconclusive and PMP22 txn inconclusive.
`Cc1c(Cl)cccc1NC(=O)CSc1nc(=O)n(Cc2cccnc2)c2c1CCC2` gave HTT promoter inh 5.6% and PMP22 txn inconclusive.
For CC(=O)c1ccc(N2CCN(C(=O)C3CCN(S(=O)(=O)c4cn(C)cn4)CC3)CC2)cc1 the results were HTT promoter inh -0.5% and PMP22 txn -44.2%.
Cc1ccc(Cn2c(CNC(=O)Cc3cccc([N+](=O)[O-])c3)nc3cccnc32)cc1 was read as HTT promoter inh -11.7% and PMP22 txn -9.8%.
Screening CCOc1ccc(NC(=O)Cn2cc(C(=O)c3ccc(OCC)cc3)c(=O)c3cc4c(cc32)OCCO4)cc1 returned HTT promoter inh 6.1% and PMP22 txn -29.5%.
Screening COc1cccc2cc(-c3nnc(Nc4ccccc4C)s3)c(=O)oc12 returned HTT promoter inh 67.9%[activator] and PMP22 txn inconclusive.
For COc1cc(C(=O)Nc2ccc3nc4n(c(=O)c3c2)CCCCC4)cc(OC)c1OC the results were HTT promoter inh -13.9% and PMP22 txn -21.4%.
`COc1ccccc1OC(C)C(=O)Nc1ccc(-c2nc3ccccc3s2)cc1` (stereo not drawn) gave HTT promoter inh 44.8%[activator] and PMP22 txn inconclusive.
Screening O=c1cc(COc2ccccc2Cl)nc2scc(-c3ccccc3)n12 returned HTT promoter inh -7.5% and PMP22 txn -6.8%.
O=C(Cn1c(=O)n(-c2ccccc2)c(=O)c2c3c(sc21)CCC3)c1ccc(F)cc1 was read as HTT promoter inh -10.0% and PMP22 txn inconclusive.
`O=c1c2oc3ccccc3c2n(Cc2cccc(Cl)c2)c(=O)n1Cc1ccco1` gave HTT promoter inh inconclusive and PMP22 txn -17.1%.
Screening CCOc1ccc(-c2nn(CC(=O)NC3CCCC3)c3c2cnc2ccc(C)cc23)cc1 returned HTT promoter inh -23.0% and PMP22 txn inconclusive.
`Cc1ccc(NC(=O)CN2C(=O)c3ccccc3Sc3ccc(C(=O)N4CCOCC4)cc32)cc1C` gave HTT promoter inh -31.3% and PMP22 txn -2.3%.
For COc1ccc(S(=O)(=O)n2nc(-c3ccco3)nc2NCc2ccc(N(C)C)cc2)cc1 the results were HTT promoter inh -25.8% and PMP22 txn inconclusive.
Screening COc1ccc(-c2cn(-c3ccc(C)cc3)c(S(=O)(=O)CC(=O)Nc3ccccc3)n2)cc1 returned HTT promoter inh 9.5% and PMP22 txn inconclusive.
Cc1ccc(-c2nc3ccccc3[nH]2)cc1NC(=O)COc1cccc(C)c1C was read as HTT promoter inh -21.3% and PMP22 txn -35.3%.
`Cc1ccccc1Nc1c(-c2ccccc2)nc2cccc(C)n12` gave HTT promoter inh -15.1% and PMP22 txn inconclusive.
CC1=Nc2cc(C(=O)NC3CCCC3)ccc2Sc2ccc(C)cc21 was read as HTT promoter inh inconclusive and PMP22 txn 7.81µM*.

The closing three compounds of the part above are carried over, then new ones follow.
Cc1ccc(-c2nc3ccccc3[nH]2)cc1NC(=O)COc1cccc(C)c1C was read as HTT promoter inh -21.3% and PMP22 txn -35.3%.
`Cc1ccccc1Nc1c(-c2ccccc2)nc2cccc(C)n12` gave HTT promoter inh -15.1% and PMP22 txn inconclusive.
CC1=Nc2cc(C(=O)NC3CCCC3)ccc2Sc2ccc(C)cc21 was read as HTT promoter inh inconclusive and PMP22 txn 7.81µM*.
COc1ccccc1C(=O)NC(=O)Nc1ccc(-c2cc(C(F)(F)F)nn2-c2ccccc2)cc1 was read as HTT promoter inh -59.2% and PMP22 txn inconclusive.
Clc1cccc(-n2ncc3c(NC4CCCCC4)ncnc32)c1 was read as HTT promoter inh -27.1% and PMP22 txn inconclusive.
Cc1cccc(NC(=O)C(=O)c2cc(C)n(-c3ccccc3)c2C)c1C was read as HTT promoter inh -26.0% and PMP22 txn 27.5%.
For O=C(CSc1nc(=O)n(Cc2ccccn2)c2c1CCC2)Nc1cccc(Cl)c1 the results were HTT promoter inh inconclusive and PMP22 txn inconclusive.
COc1ccc(NC(=O)CN2C(=O)COc3ccc(S(=O)(=O)N4CCCCCC4)cc32)cc1 was read as HTT promoter inh -27.7% and PMP22 txn 14.4%.
`Cc1ccc(NC(=O)CN2CCN(C3CCCCC3)C(=O)C2=O)cc1C` gave HTT promoter inh -5.2% and PMP22 txn 17.6%.
`CC(C)c1nn2c(=O)cc(COC(=O)c3cccc(NC(=O)CCc4ccccc4)c3)nc2s1` gave HTT promoter inh 33.4%[activator] and PMP22 txn -10.8%.
For CCOc1ccc(NC(=O)NCc2ccc3c(c2)CCN3C(C)=O)cc1 the results were HTT promoter inh -1.2% and PMP22 txn -14.7%.
`NC(=O)C1CCN(S(=O)(=O)c2cc3c(cc2Cl)NC(=O)CO3)CC1` gave HTT promoter inh -20.7% and PMP22 txn -12.3%.
Cc1ccc2ccc3cc(C(=O)Nc4ccc(C)c(F)c4)nc3c2[nH]1 was read as HTT promoter inh -16.6% and PMP22 txn inconclusive.
Screening CCOC(=O)c1c(S(=O)(=O)N2CCCC(C(=O)Nc3cccc(Cl)c3)C2)c(C)n(C)c1C (stereo not drawn) returned HTT promoter inh inconclusive and PMP22 txn 9.4%.
CC(C)CCOc1ccc(C(=O)Nc2sc3c(c2C#N)CCCCC3)cc1 was read as HTT promoter inh -8.1% and PMP22 txn -42.8%.
For COCCn1c(CNC(=O)c2cccc(N(C)C)c2)nc2cccnc21 the results were HTT promoter inh 44.7%[activator] and PMP22 txn -7.3%.
Cc1cccc(C(=O)Nc2ccc(-c3nc4ncccc4o3)cc2C)c1 was read as HTT promoter inh 32.6%[activator] and PMP22 txn -4.6%.
`Cn1ccc2c(OCC(=O)NCc3ccc(F)cc3)cccc2c1=O` gave HTT promoter inh -16.5% and PMP22 txn inconclusive.

Random excerpt: 2 compounds from above
COc1ccccc1C(=O)NC(=O)Nc1ccc(-c2cc(C(F)(F)F)nn2-c2ccccc2)cc1 was read as HTT promoter inh -59.2% and PMP22 txn inconclusive.
CC(C)CCOc1ccc(C(=O)Nc2sc3c(c2C#N)CCCCC3)cc1 was read as HTT promoter inh -8.1% and PMP22 txn -42.8%.

(further entries)
`CCN(C(=O)Cn1cnc2onc(-c3ccc(F)cc3)c2c1=O)c1cc(C)ccc1C` gave HTT promoter inh -14.5% and PMP22 txn 3.7%.
For COc1ccc(-c2nnc(SCC(=O)Oc3cccc(C)c3C)o2)cc1 the results were HTT promoter inh inconclusive and PMP22 txn -12.1%.
CN(C)c1nc(N(C)C)nc(N(C)C)n1 was read as HTT promoter inh inconclusive.
COc1cccc(CNC(=O)c2ccc(-c3nc(CS(=O)(=O)c4ccccc4)c(C)o3)cc2)c1 was read as HTT promoter inh inconclusive and PMP22 txn -8.4%.
`O=C(Nc1nc2ccc(Cl)cc2s1)c1ccc(S(=O)(=O)N2CCCC2)cc1` gave HTT promoter inh 1.6% and PMP22 txn -17.9%.
`O=C(CSc1nc2c(c(=O)[nH]1)CN(Cc1ccc3c(c1)OCO3)CC2)Nc1ccccc1Cl` gave HTT promoter inh -32.2% and PMP22 txn -11.7%.
Screening CCc1cccc(NC(=O)Cn2nc(-c3ccc(OC)cc3)ccc2=O)c1 returned HTT promoter inh 4.9% and PMP22 txn -9.5%.
`COc1cc(OC)c(NC(=O)c2c(N3CCCC3=O)c3cc(C)ccc3n2C)cc1Cl` gave HTT promoter inh -2.6% and PMP22 txn -10.1%.
Screening CSc1ncc(Cl)c(C(=O)Nc2nc3ccc(F)cc3s2)n1 returned HTT promoter inh -7.2% and PMP22 txn -10.6%.
Cc1ccc(NC(=O)c2sc(-n3nc(C)c(CCC(C)C)c3C)nc2C)cc1C was read as HTT promoter inh -5.9% and PMP22 txn -6.3%.
For CC(C)OCCCn1c(=O)c2ccccc2n2c(-c3ccc(F)cc3)nnc12 the results were HTT promoter inh 2.8% and PMP22 txn -10.5%.
For CCOC(=O)c1c(C)oc2nc(C)nc(NCc3ccc(C)cc3)c12 the results were HTT promoter inh 7.9% and PMP22 txn -2.4%.
Cc1oc(-c2ccc(C(=O)NCCCOC(C)C)cc2)nc1CS(=O)(=O)c1ccccc1 was read as HTT promoter inh inconclusive and PMP22 txn -7.2%.
Screening CCc1ccccc1NC(=O)Cn1c(=O)oc2ccccc21 returned HTT promoter inh -10.6% and PMP22 txn -27.6%.
O=C(c1nc(-c2ccc(Cl)cc2)n2c1CCCCC2)N1CCN(c2ccccc2)CC1 was read as HTT promoter inh -75.9%[11.5 µM] and PMP22 txn inconclusive.
Screening COc1cc(OC)c(OC)cc1CNCCCSc1nnnn1C returned HTT promoter inh -6.5% and PMP22 txn -12.4%.
`Cc1ccc(C)c(NC(=O)Nc2cccc(-c3cn4cccnc4n3)c2)c1` gave HTT promoter inh -3.1% and PMP22 txn -97.1%.
